Bead autofluor – flagged as autofluorescent in microsphere protease counterscreen. compound autofluorescence counterscreen, microsphere flow cytometry; hits give high values. fluorescence intensity (concentration not given with the values). 360,000 tested, 3.1% active;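 active = at least 3 SD above the mean of all compounds, about 16000 in these data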;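 note: 100 nL of 1 mM stock went into each well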
PrP 5UTR inh – suppresses PrP 5' UTR mRNA reporter expression | cell-based PrP 5' UTR mRNA reporter, plate reader | inhibition, % (no concentration beside the values) | 340,000 tested, 0.35% active | AID 488862;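 active = every replicate at 50% or more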;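 note: 0 = median of the neutral control wells; tested in H4 reporter cells; numbers are from one replicate; inactives centre near -14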
BJeLR lethal – kills HRASV12-expressing BJeLR cells; inhibition, % (no concentration beside the values); 300,000 tested, 0.17% active; BJeLR (HRASV12) viability, CellTiter-Glo ATP luminescence, 48 h; reference of the scale not given here;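 active = replicate mean above 50%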;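 note: 50 nL library stock added to about 25 µL; numbers are from one replicate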
ugtP null kill – growth inhibition of S. aureus ugtP deletion strain; S. aureus RN4220 ugtP deletion, OD600 growth, 16 h; some inactives read as strong as hits; growth inhibition, % (concentration not given with the values); 330,000 tested, 0.54% active; AID 1259309;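 active = z-score under -3 and OD600 up to 0.15 on both plates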;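 note: plate controls were untreated wells for no effect and antibiotic for full effect; wells of about 80 µL received 100 nL stock; the first replicate is given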
Mtb hypoxia inh – inhibitors of hypoxia-regulated fluorescent reporter in Mycobacterium tuberculosis. M. tuberculosis hypoxia-regulated fluorescent reporter, fluorescence. fluorescence inhibition, % (test concentration not listed). 300,000 tested, 0.1% active. AID 1159583;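 active = 35 to 45% if threefold the growth effect, above 45% if 1.5-fold the growth effect; inactive = the rest, general growth blockers included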;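 note: wells of about 50 µL received 100 nL stock; 0% = vehicle wells and 100% = reference inhibitor wells; whole bacteria with a GFP reporter of the hypoxia response; strong numbers were not always called active; many hits fall short of the cut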
Sa RN4220 lethal – kills Staphylococcus aureus RN4220 | 330,000 tested, 0.33% active | inhibition, % (no concentration beside the values) | S. aureus RN4220 growth, OD600, 16 h;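 active = z-score of -3 or lower and OD600 up to 0.18 on both plates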;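 note: plate controls were untreated cells for no effect and reference antibiotic for full effect; stock transfer was 100 nL into about 80 µL; one replicate is shown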
Mtb hypoxia inh growth – further read-out of Mtb hypoxia inh, marked with its call; growth inhibition, %; measured here: M. tuberculosis growth (absorbance);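 0% = vehicle and 100% = reference antibiotic; read after six days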
The depositor's hits bear a star; . = no result given.

Structure	Bead autofluor	PrP 5UTR inh	Mtb hypoxia inh	Sa RN4220 lethal	Mtb hypoxia inh growth	ugtP null kill	BJeLR lethal
CCCCN1/C(=C/c2cccc[n+]2C)Sc2cc(NC(C)=O)ccc21	3518	-16	11	1.9	8	3	-15
CCc1nnc(NC(=O)CSc2ncc(-c3ccccc3)n2CC)s1	6504	-12	0	1.8	2	0	0
COc1cc(C)ccc1OCCCOc1c(Cl)cccc1Cl	1973	-15	10	4.4	4	65	1
COc1ccc(C(=O)/C=C2/c3ccccc3CC(C)(C)N2C)cc1	11487	-24	13	10	7	-2	20
Cc1ccc(N2C(=O)C(CN(C)C)C2c2ccccc2)cc1 (configuration not stated)	.	2	8	5.5	1	11	15
CS(=O)(=O)N(CC(=O)N1CCc2ccccc2C1)Cc1ccc(F)cc1	3863	-5	10	6.2	10	12	-1
Cc1ccc(-n2nc(C)c3c(C)cc(=O)[nH]c32)cc1	7971	-6	-3	2.8	-1	2	-1
CNC(=O)CC1C(=O)N(c2ccc(OC)cc2)C(=S)N1NC(=O)c1cccc(F)c1 (configuration not stated)	.	.	4	-2.4	1	0	-6
COc1ccc(S(=O)(=O)N2CCCC2CNC(=O)C(=O)NCc2ccccc2Cl)cc1 (configuration not stated)	5479	-8	-5	3.5	4	9	-5
COc1ccc(C(C(=O)NC(C)(C)C)N(C(=O)CCC(=O)Nc2cc(C)on2)c2ccc(C)c(C)c2)cc1 (configuration not stated)	3651	-14	2	1.7	2	-3	4
COCCNC(=O)CCn1nc(-c2ccc(C)cc2)ccc1=O	3815	-11	-2	3.9	-3	-2	-5
CN(C)CCOC(=O)C12CC3CC(C1)CC(C(=O)OCCN(C)C)(C3)C2	4066	0	5	5.4	-2	8	-1
COc1ccccc1C1NC(=O)c2ccccc2O1 (configuration not stated)	3496	-10	0	-1.8	0	-1	4
O=C1[C@H]2[C@@H](c3ccc(F)cc3)N3C(=O)N(c4cccc(Cl)c4)C(=O)[C@@]3(Cc3ccccc3)[C@H]2C(=O)N1C1CCCCC1	3563	-3	.	.	.	.	14
Cn1cccc1/C=C1/C(=O)NC(=O)N(Cc2ccc(F)cc2)C1=O	5888	-14	13	4.3	11	6	3
O=C(Nc1ccc(O)cc1C(=O)O)c1cccc(Br)c1	3084	-36	.	2.9	.	18	-7
CCN(CC)CCn1c2c(c(SCC(=O)Nc3cccc4ccccc34)nc1=O)CCC2	3929	-39	0	2.6	0	4	16
COc1cc(C(=O)NCC(=O)NNC(=O)C2COc3ccccc3O2)cc(OC)c1OC (configuration not stated)	3881	-5	-13	-2.1	2	-9	.
CC(=O)c1cccc(NC(=O)CSc2nnc(C(C)N(C)C)n2-c2ccc(F)cc2)c1 (configuration not stated)	3643	-10	5	1.2	1	3	-5
Clc1ccc(C2=Nn3c(nnc3-c3n[nH]c4c3CCC4)SC2)cc1	2434	17	.	-1.7	.	7	-8
COCCn1c(SCC(=O)N2CCCC2)nnc1-c1ccoc1C	3648	-17	.	-1.8	.	1	-2
OC(CC#CCN1CCCC1)(c1ccccc1)c1ccccc1	6238	-17	3	-3.0	-6	-2	-10
CC(CO)NC(=O)c1ccc2c3n(nc2c1)-c1ccccc1CO3 (configuration not stated)	.	.	-2	1.6	1	1	.
CCN(CC)S(=O)(=O)c1cccc(-c2nnc(SCC(=O)N3CCC(C(=O)O)CC3)n2N)c1	3163	-18	0	0.8	8	-5	-2
O=C(Cn1c2c(c(-c3ccccc3)cc1=O)CCCC2)N1CCCCCC1	7013	-18	5	-7.3	9	-9	2
COc1ccc(OC)c(CCNC(=O)CCc2cn(C)c3ccccc23)c1	3305	-10	1	3.8	5	19	-4
Cc1ccc(S(=O)(=O)CC(C)(O)CS(=O)(=O)c2ccc(C)cc2)cc1	4966	3	7	1.0	6	3	-5
COc1ccc(C(=O)N2CCCC(Nc3ccc(C)c(C)c3)C2)cc1F (configuration not stated)	6528	-17	9	2.1	4	7	0
COc1ccc(C2Nc3ccccc3C(=O)N2NS(=O)(=O)c2ccccc2)cc1OC (configuration not stated)	4258	-10	7	5.6	-4	4	6
O=C(NNC(=O)c1nn(-c2ccc(F)cc2)ccc1=O)Nc1cccc(Cl)c1	3294	-24	10	2.8	5	1	-14
CCCCCCOC(=O)/C=C/c1c(C)[nH]c(=O)[nH]c1=O	2502	-11	8	80	11	77	0
Cc1nnc(Sc2cc(C(=O)NCCCOC(C)C)c3ccccc3n2)s1	4235	-19	-15	3.9	-7	-6	-9
Cc1ccc(NS(=O)(=O)c2ccc(C(=O)NCc3ccncc3)cc2)cc1	5633	-6	-5	-0.7	7	7	4
Cc1[nH][nH]c(=O)c1C(c1ccc([N+](=O)[O-])cc1)c1c(C)[nH][nH]c1=O	3884	8	14	3.9	4	5	-1
COCCn1c(=NC(=O)C2COc3ccccc3O2)sc2cc(S(N)(=O)=O)ccc21 (configuration not stated)	2112	0	.	.	.	.	6
Cn1c(C(O)c2ccc3c(c2)OCO3)nc2ccccc21 (configuration not stated)	2656	-28	.	1.9	.	4	-3
Cc1ccc(Cl)cc1N(C(=O)c1csnn1)C(C(=O)NC1CCCC1)c1ccco1 (configuration not stated)	3553	-23	4	2.5	8	9	-6
CCOC(=O)N1CCN(S(=O)(=O)c2cccc3nsnc23)CC1	4030	-40	.	-3.6	.	5	0
Cc1cc(C)nc(NN=Cc2ccccc2OCc2ccccc2)n1	.	.	12	5.4	5	11	.
CCC(=O)N1CCN(c2ccc(NC(=O)c3ccc(N4CCCC4)c([N+](=O)[O-])c3)cc2)CC1	2350	0	18	2.9	3	8	-1
Cc1cccc(-c2c3c(nc4c2c(=O)n(C)c(=O)n4C)-c2ccccc2C3O)c1 (configuration not stated)	5703	-6	1	3.8	2	8	-8
Cc1ccc(S(=O)(=O)NC(=O)Nc2cccc(C)n2)cc1	3696	.	7	1.6	-2	8	-6
Clc1ccc(-c2nnc(N3CCCC3)nn2)cc1	5270	-54	6	4.3	14	3	-2
Cc1c(OCC(=O)C(C)(C)C)ccc2c(-c3ccccc3)cc(=O)oc12	4057	-15	-7	5.0	-1	6	-1
COc1cc(C(=O)NCCSc2ccc(Cl)cc2)cc(OC)c1OC	4227	-4	-9	0.5	14	-5	-2
O=C(O)CCCCCCCCCCCc1ccccc1	5323	-12	.	9.1	.	-13	3
COC(=O)c1c(C(=O)OC)c2oc3ccccc3n2c1Cl	2233	-7	.	5.2	.	6	7
Cc1ccc(-c2cc3nc(-c4ccc(Br)cc4)cc(N)n3n2)cc1	2255	-12	1	-6.3	2	-17	-8
COC(=O)CCCC[C@@H]1SC[C@@H](NC(=O)OC)[C@@H]1NC(=O)OC	3933	-15	7	4.9	6	0	-13
COc1ccc(/C=N\NC(=O)c2ccc(=O)[nH]n2)cc1O	7086	-21	.	.	.	.	-12

Complete entries, looked up by structure:
COc1cc(C(=O)NCCSc2ccc(Cl)cc2)cc(OC)c1OC in the list: Bead autofluor: 4227; PrP 5UTR inh: -4; Mtb hypoxia inh: -9; Sa RN4220 lethal: 0.5; Mtb hypoxia inh growth: 14; ugtP null kill: -5; BJeLR lethal: -2
Cc1c(OCC(=O)C(C)(C)C)ccc2c(-c3ccccc3)cc(=O)oc12 in the list: Bead autofluor: 4057; PrP 5UTR inh: -15; Mtb hypoxia inh: -7; Sa RN4220 lethal: 5.0; Mtb hypoxia inh growth: -1; ugtP null kill: 6; BJeLR lethal: -1

The list continues.
Structure	Bead autofluor	PrP 5UTR inh	Mtb hypoxia inh	Sa RN4220 lethal	Mtb hypoxia inh growth	ugtP null kill	BJeLR lethal
COc1ccc(N(C(=O)CNC(=O)c2ccco2)C(C(=O)NCC2CCCO2)c2ccccc2)cc1 (configuration not stated)	6221	-25	7	3.3	0	18	2
C=CCC(Nc1ccccc1)c1cccc(OC)c1OC (configuration not stated)	4108	.	11	1.0	0	11	-1
Cc1nn(C)c(Cl)c1C=NOC(=O)c1ccccc1	.	.	8	7.4	7	7	.
Cc1ccccc1C(=O)ON=C(N)c1ccncc1	.	.	3	7.7	5	6	.
CCOc1cccc(C=NNC(=O)c2cc(C3CC3)[nH]n2)c1O	.	.	8	2.0	0	3	.
Clc1ccc(Cc2nc(-c3ccncc3)no2)cc1	2230	5	7	2.6	5	3	-11
COc1ccc(S(=O)(=O)N(CC(=O)N2CCN(C)CC2)c2ccc(C)cc2)cc1Br	3972	-12	0	2.0	1	1	-6
CCOC(=O)c1c(-c2ccccc2)oc2ccc(O)c(CN(C)C)c12	8808	2	14	1.9	30	-29	5
O=S(=O)([N-]c1nc2ccccc2nc1-[n+]1ccccc1)c1ccc(F)cc1	3265	-7	14	1.3	-2	2	8
COc1cc(C(=O)OCC(=O)NCc2ccccc2)cc(NC(=O)c2ccco2)c1OC	3359	-2	.	8.4	.	3	6
Cn1ccnc1SCC(=O)n1c2c(c3ccccc31)CCCC2	1985	-4	-6	4.6	5	-1	-5
NC(=O)CSc1ncnc2c1oc1ccccc12	5264	-15	7	3.6	1	0	4
O=C(NCc1cccc(Cl)c1)C1CCCN(c2ncnc3c2nc2n3CCCCC2)C1 (configuration not stated)	4450	-5	1	4.2	-4	15	3
O=C(NNC1CC(=O)N(c2cccc(Cl)c2)C1=O)c1cccnc1 (configuration not stated)	2091	3	5	6.4	1	8	-4
COc1cc2c(cc1OC)C(CC(=O)O)N(C(=O)CC1CCCC1)CC2 (configuration not stated)	3898	-19	-3	2.9	0	-1	2
Cc1cc(C)c2nc3nc(C)cc(C)c3c(N)c2c1	2142	-13	0	1.1	0	14	17
COc1cc(CN2CCNC(=O)C2CC(=O)O)cc(OC)c1 (configuration not stated)	3556	-13	6	5.6	5	8	-2
Cc1ccc(NC(=O)c2ccc(=O)[nH]n2)cc1C	3595	-18	8	2.8	3	6	-8
COC(=O)c1ccccc1S(=O)(=O)N1CCC(C(=O)NCCC2=CCCCC2)CC1	6746	-7	3	2.6	-3	3	.
Cc1ccc(NC(=S)/C(=C(\[O-])c2ccc(Cl)s2)[n+]2cccc(CO)c2)cc1C	4672	-5	15	-0.7	2	0	-11
Cc1c(C)c(C)c(C(=O)c2ccc(NC(=O)c3ccccc3C(=O)O)cc2)c(C)c1C	3776	-2	15	15	3	20	10
Cc1c(C(=O)N2CCN(c3ccccc3)CC2)sc2ncnc(N3CCN(c4ccccn4)CC3)c12	3721	-30	.	.	.	.	-3
O=C(COC(=O)c1cccc(C(=O)OCC(=O)NCc2ccc(F)cc2)n1)NCc1ccc(F)cc1	2552	-7	-4	4.2	1	1	-1

Taken from above for reference:
Structure	Bead autofluor	PrP 5UTR inh	Mtb hypoxia inh	Sa RN4220 lethal	Mtb hypoxia inh growth	ugtP null kill	BJeLR lethal
Cn1ccnc1SCC(=O)n1c2c(c3ccccc31)CCCC2	1985	-4	-6	4.6	5	-1	-5
NC(=O)CSc1ncnc2c1oc1ccccc12	5264	-15	7	3.6	1	0	4
O=C(NCc1cccc(Cl)c1)C1CCCN(c2ncnc3c2nc2n3CCCCC2)C1 (configuration not stated)	4450	-5	1	4.2	-4	15	3

Compounds as they come; about 4% have a hit in one of these screens.
